Screens as filed in PubChem.
HSV augment: increases HSV replication in cells; actives 0.005% (n = 220,000); AID 1956; maximum fold increase; HSV replication augmentation in cells, fold increase;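 active = peak rise of 1.5-fold or more in the series; inconclusive = self-fluorescent or not available for retest; tested in PC3 cells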;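 also: first round at 10 µM; read as green reporter fluorescence; hits show the peak of a series up to 25 µM; 1 = signal of infected wells without compound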
RGS16-Gao HTS: RGS16-Galphao interaction regulator (human); bead-based flow cytometry RGS16-Galphao binding, fluorescence; actives lie on both sides; binding response (% of control), % at 10 µM; AID 1441; actives 0.38% (n = 220,000);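 active = below 25% or above 175%, edge rows of some plates excepted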;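 also: Galphao activated by GDP with aluminum fluoride before binding; 100% = wells without compound and 0% = beads without RGS; some results beyond the cut were filed as inactive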
Target sequence (O15492 whole entry, looked up): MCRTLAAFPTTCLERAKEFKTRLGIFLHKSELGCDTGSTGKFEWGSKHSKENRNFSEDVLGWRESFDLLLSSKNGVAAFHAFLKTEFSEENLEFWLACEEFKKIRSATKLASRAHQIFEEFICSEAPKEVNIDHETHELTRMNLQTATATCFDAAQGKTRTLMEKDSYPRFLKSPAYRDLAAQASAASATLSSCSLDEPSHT
Target sequence (P09471 whole entry, looked up): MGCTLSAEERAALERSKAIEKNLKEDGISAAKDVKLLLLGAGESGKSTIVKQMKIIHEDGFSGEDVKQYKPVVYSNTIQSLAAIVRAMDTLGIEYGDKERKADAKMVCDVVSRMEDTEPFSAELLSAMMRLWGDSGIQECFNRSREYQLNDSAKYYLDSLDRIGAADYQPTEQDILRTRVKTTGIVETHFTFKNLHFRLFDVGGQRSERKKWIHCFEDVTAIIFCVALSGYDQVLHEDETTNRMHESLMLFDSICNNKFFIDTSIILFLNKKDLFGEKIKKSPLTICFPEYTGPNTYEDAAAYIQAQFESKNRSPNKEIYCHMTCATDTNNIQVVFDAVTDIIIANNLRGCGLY
INS promoter inh: TRM-6 insulin promoter activity inhibition. inhibition, % at 2 µM. TRM-6 cells (human fetal islet line), insulin promoter-eGFP reporter, imaging; reporter expression induced with tamoxifen. actives 0.9% (n = 130,000);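 active = inhibition above the mean plus 3 SD, with well images judged a real hit on visual review, cut at about 60% in these data, passing the limit was not always enough; inconclusive = inhibition over the cutoff but images rejected on review; inactive = inhibition not above the cutoff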
PKD1 inh: inhibitors of human PKD1 kinase | Q15139 | PKD1 kinase fluorescence polarization assay | inhibition, %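 (about 10 µM by stock and volumes)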 | actives 0.056% (n = 200,000);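 active = inhibition of 50% or more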;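 also: controls were vehicle for no effect and a reference inhibitor for full effect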
GALR2 ag: activates the human galanin receptor 2 | O43603 | GALR2-expressing cells, agonist activation read-out | activation, %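 (tested at 5 µM)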 | actives 0.48% (n = 140,000);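 active = above mean plus 3 SD of all compounds, about 5% in these data, not always enough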;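 also: 0% = vehicle buffer wells and 100% = reference agonist at full effect; tested in CHO reporter cells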
Target sequence (O43603 whole entry, looked up): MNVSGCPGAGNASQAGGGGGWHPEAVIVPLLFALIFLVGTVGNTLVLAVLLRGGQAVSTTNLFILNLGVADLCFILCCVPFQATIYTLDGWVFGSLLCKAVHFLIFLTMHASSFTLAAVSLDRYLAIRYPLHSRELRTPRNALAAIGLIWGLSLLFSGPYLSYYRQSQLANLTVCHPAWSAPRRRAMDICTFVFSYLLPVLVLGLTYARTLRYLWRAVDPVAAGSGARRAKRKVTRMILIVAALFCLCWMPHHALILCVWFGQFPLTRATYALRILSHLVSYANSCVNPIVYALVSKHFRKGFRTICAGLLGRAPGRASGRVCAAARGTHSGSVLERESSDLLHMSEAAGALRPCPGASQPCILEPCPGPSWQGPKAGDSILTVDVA
INS promoter inh cell count: recorded beside INS promoter inh, whose call it bears; normalized cell count, %; measured here: cell count, toxicity; reference of the scale not given here;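 cells exposed to compound for 48 h; stained nuclei by imaging scaled within each plate; lower means fewer cells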
HSV augment primary fold: recorded beside HSV augment, whose call it bears; fold increase; compound at 10 µM; measured here: primary screen fold increase 10 uM; tested in PC3 cells;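 GFP signal in the first replicate; 1 = infected wells without compound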
An asterisk follows results filed as active; i = inactive; u = inconclusive; x = not tested or not shown. Rows are unselected. Share with any hit: about 1.3%.

SMILES	HSV augment	HSV augment primary fold	RGS16-Gao HTS	INS promoter inh	INS promoter inh cell count	PKD1 inh	GALR2 ag
CC(C)CN(CC(C)C)S(=O)(=O)N1CCC(C(=O)NCc2ccc3c(c2)OCO3)CC1	i	0.99	103.5	x	x	-3.0	x
O=C(Nc1cccc(S(=O)(=O)NC2=NCCCCC2)c1)c1cc(-c2ccc(Cl)cc2)nc2ccccc12	i	0.75	113.5	30.8	103.5	11.0	-1.3
CC(=O)CCC(=O)OCC(=O)c1ccc(C(F)(F)F)cc1	i	1	94.6	x	x	x	x
COc1ccc(C(=O)c2oc3ccc(OC)cc3c2NC(C)=O)cc1	i	0.94	114.7	-18.2	116.0	-6.6	x
CCOC(=O)CCNC(=O)N1CCCC(CNS(=O)(=O)Cc2ccccc2)C1 (configuration not stated)	i	0.85	108.7	14.3	103.5	-1.9	x
CCc1cc2c(SCC(=O)N(CC)c3c(N)n(Cc4ccccc4)c(=O)[nH]c3=O)ncnc2s1	i	0.99	108.5	-15.0	86.0	11.4	x
c1ccc(-c2nc3nc4ccccc4nc3n2CC2CCCO2)cc1 (configuration not stated)	i	1.02	97.2	x	x	x	x
Cc1noc(C)c1CSc1nc2ccccc2c(=O)n1-c1ccc(Cl)cc1	i	0.8	93.4	25.9	69.0	-1.2	-1.0
Cc1ccc(S(=O)(=O)N2CCC(C(=O)N[C@@H](C)C(=O)NCc3ccccc3)CC2)cc1	i	0.82	99.1	x	x	-11.3	-0.8
N/C(=N/OC(=O)c1ccccc1Cl)c1nonc1N	i	0.88	105.7	33.3	127.9	-1.7	x
CCCCn1ccnc1C(=O)c1ccc(S(=O)(=O)N(CCOC)CCOC)cc1	x	x	103.8	0.0	88.6	2.1	-0.4
O=C(Nc1ccc(N2CCN(c3ccc(O)cc3)CC2)cc1)Oc1ccccc1	i	0.89	88.9	0.0	123.2	-0.8	12.5*
COc1cc(/C=C/C(=O)OCC(=O)Nc2ccc([N+](=O)[O-])cc2)ccc1O	i	0.93	100.3	x	x	x	x
COc1ccc(S(=O)(=O)N(C)C)cc1NC(=O)CSc1ncccn1	i	0.93	100.8	16.7	70.3	1.5	x
CC(C)OC(=O)/C(=C/c1ccc(Br)cc1)NC(=O)c1ccco1	i	0.97	104.5	6.7	38.5	-7.0	-0.8
CCCCn1nc2cc(C(=O)NCCc3cccs3)ccc2c1OCC	i	0.86	97.6	9.1	175.1	-5.7	-0.5
CC(=O)Nc1ccc(C(=O)N/N=C(\C)CC(=O)Nc2ccc(OCc3ccccc3)cc2)cc1	i	0.97	109.9	x	x	-5.9	1.0
Cc1nc(NC(=O)c2ccc(F)cc2)nc2cc3c(cc12)OCO3	i	0.98	99.3	x	x	20.4	-0.8
N#Cc1c(-c2ccccc2)nc(-c2ccccc2)nc1N1CCOCC1	i	0.98	101.4	28.6	62.5	-3.5	-0.8
COc1cc(NC(=S)NC2CC2)c(OC)cc1Cl	i	0.87	103.6	41.2	114.3	-6.7	-1.9
Cc1noc(C)c1S(=O)(=O)N(CC(=O)NCc1ccc(Cl)cc1)c1ccc2c(c1)OCO2	i	0.91	106.0	x	x	12.1	-2.0
O=C(C(c1ccccc1)c1ccccc1)N(Cc1ccco1)C1CCS(=O)(=O)C1 (configuration not stated)	i	1.04	100.3	x	x	-3.2	-0.7
N=c1oc2ccc3ccccc3c2cc1-c1nnc2n1CCCCC2	i	0.92	102.0	28.6	109.6	1.9	2.6
CCCn1c(NC(=O)c2ccc(C)cc2)nc2ccccc21	i	0.88	103.0	3.2	163.2	0.9	-1.4
O=C(CNC(=O)C12CC3CC(CC(C3)C1)C2)N1CCN(S(=O)(=O)c2cccs2)CC1	i	1.14	105.8	7.7	126.3	-13.6	-1.8

More compounds follow:
SMILES	HSV augment	HSV augment primary fold	RGS16-Gao HTS	INS promoter inh	INS promoter inh cell count	PKD1 inh	GALR2 ag
COc1ccc(C2/C=C\CN(C(=O)Nc3ccccc3-c3ccccc3)CC(=O)N2Cc2ccc(F)cc2)cc1 (configuration not stated)	i	0.81	104.0	x	x	x	x
COc1ccc(N2C3=C(CC4=C2CC(C)(C)CC4=O)C(=O)CC(C)(C)C3)cc1	i	0.88	88.9	-62.9	55.2	-8.8	-0.2
O=C(OCc1ccccc1)C1=[N+]([O-])OC(C(=O)OCc2ccccc2)C1c1c[nH]c2ccccc12 (configuration not stated)	i	0.86	102.3	17.9	98.0	-15.1	-0.3
CCC(C)n1nccc1NC(=O)C(C)Cl (configuration not stated)	i	0.97	101.8	x	x	-0.2	x
Cc1ccc(CC23CN4CCN(CC(C4)C2O)C3)c(C)c1 (configuration not stated)	i	0.8	100.8	-100.0	70.1	-5.1	-1.1
Cc1ccccc1OCC(=O)Nc1cc(Cl)ccc1Oc1ccccc1	x	x	94.6	x	x	-7.6	-1.0
Cn1cccc1CC(=O)N/N=C/C=C/c1ccco1	i	1.04	76.8	-86.7	214.4	-9.6	-0.8
Cc1ccc(C(=O)Nc2sc(Cc3ccc4c(c3)OCO4)c(C)c2C(N)=O)cc1	i	0.91	100.6	35.0	116.0	-4.5	-0.2
CCCCn1nnnc1SCC(=O)N(CC)CC	i	0.93	106.0	-107.1	94.9	-14.8	-3.4
CCN(CC)c1ccc(C2C(C(=O)OCCOC)=C(C)NC3=C2C(=O)CC(C)(C)C3)cc1 (configuration not stated)	i	0.97	83.4	x	x	-6.6	0.7
Cc1ccc2nc(/C(C#N)=C\c3ccc(OC(=O)c4cccs4)cc3)[nH]c2c1	i	0.8	79.4	-10.0	102.6	6.2	-0.2
COc1ccc(C(C)n2c(C)c3c(C)nnc(C)c3c2C)cc1 (configuration not stated)	i	0.75	120.2	-71.4	55.6	3.5	-0.1
Cc1ccc(NC(=O)Cc2csc(-c3ccccc3)n2)cc1F	i	0.87	95.3	x	x	-11.8	-3.0
O=C(N/N=C1\C/C(=N\NC(=O)c2ccncc2)c2ccccc21)c1ccncc1	i	0.89	98.8	x	x	-2.4	x
COc1ccc(F)cc1C(=O)C1CCCN(C(=O)CSc2ccccn2)C1 (configuration not stated)	i	1.04	111.9	x	x	-8.4	x
CCN1CCN(C(=O)c2ccc3c(c2)c(C)c(C)n3Cc2ccccc2)CC1	i	0.95	100.9	x	x	-0.1	x
O=C(C1CCN(Cc2ccccc2)CC1)N1CCN(C/C=C/c2ccccc2)CC1	i	0.88	116.9	-69.2	64.8	1.8	-1.0
Fc1ccc(NC(=S)NC23CN4CN(CN(C4)C2)C3)cc1	i	1.03	99.3	-32.4	127.3	-0.7	-0.8
CCOC(=O)c1ccc(NCc2ccncc2)cc1	i	0.97	x	-41.9	122.5	1.9	-0.9
COc1ccc(OCC(=O)Nc2ccc(C)c(S(=O)(=O)N(C)C)c2)cc1	i	0.97	100.1	61.5	103.6	-3.5	x
C/C(N)=C(/C#N)C(=O)CSc1nnc(C)n1-c1ccccc1	i	1.08	102.8	-17.6	113.3	-8.2	x
COc1ccc(NC(=S)N=Nc2c(O)[nH]c3ccccc23)cc1	i	0.94	101.0	x	x	x	x
COc1ccc(/C=C/C(=O)NCc2cn(C)nc2C)cc1COc1ccc(Br)cc1	i	0.85	107.1	-46.0	104.2	3.3	-1.6
CCOc1ccc(NC(=O)CCN2CCN(c3ccccc3F)CC2)cc1	i	0.99	100.5	x	x	5.1	-0.1
O=C(O)CCSCCCN1C(=O)c2cccc3cccc(c23)C1=O	i	1.06	103.1	-50.0	95.5	1.3	x

Structural class, the entries above containing an NH in an aromatic ring.
SMILES	HSV augment	HSV augment primary fold	RGS16-Gao HTS	INS promoter inh	INS promoter inh cell count	PKD1 inh	GALR2 ag
CCc1cc2c(SCC(=O)N(CC)c3c(N)n(Cc4ccccc4)c(=O)[nH]c3=O)ncnc2s1	i	0.99	108.5	-15.0	86.0	11.4	x
O=C(OCc1ccccc1)C1=[N+]([O-])OC(C(=O)OCc2ccccc2)C1c1c[nH]c2ccccc12 (configuration not stated)	i	0.86	102.3	17.9	98.0	-15.1	-0.3
Cc1ccc2nc(/C(C#N)=C\c3ccc(OC(=O)c4cccs4)cc3)[nH]c2c1	i	0.8	79.4	-10.0	102.6	6.2	-0.2
COc1ccc(NC(=S)N=Nc2c(O)[nH]c3ccccc23)cc1	i	0.94	101.0	x	x	x	x

(continued)
SMILES	HSV augment	HSV augment primary fold	RGS16-Gao HTS	INS promoter inh	INS promoter inh cell count	PKD1 inh	GALR2 ag
Nc1c(C(=O)C2CC2)sc2nc(-c3ccccc3)cc(C(F)(F)F)c12	u	x	88.6	x	x	-8.4	-3.5
Cc1ccc(-c2c[n+](CC(=O)Nc3ccccc3)c3n2CCC3)cc1	i	1.18	106.4	x	x	x	x
Cc1ccc(Cn2ccc(=O)c(OCc3ccccc3)c2C)cc1	i	0.9	94.7	-22.6	90.5	-2.0	-1.5
CC(=O)c1cccc(NC(=O)CCNS(=O)(=O)c2cccc3nonc23)c1	i	1.07	100.0	18.2	89.6	-8.8	x
CSc1ccc(/C=C(\NC(=O)c2ccc(C)cc2)C(=O)Nc2cccc(C)c2)cc1	i	0.93	102.0	21.4	128.4	-0.3	1.2
O=C(C1CCC(Cn2c(=O)[nH]c3ccccc3c2=O)CC1)N1CCN(c2ccccc2)CC1 (configuration not stated)	x	x	112.6	-75.0	142.2	11.2	0.1
COc1ccc(-c2noc(C3CCCN(C(=O)c4ccccc4)C3)n2)cc1 (configuration not stated)	i	0.93	93.7	x	x	x	x
Cc1cccc(-c2nc(NCCCN3CCOCC3)c3ccccc3n2)c1	i	0.75	96.5	-23.9	187.0	-5.1	-0.7
Cc1ccc(N(Cc2ccc(C(=O)NCC3CCCO3)cc2)S(C)(=O)=O)cc1C (configuration not stated)	i	0.99	103.7	x	x	0.3	x
CCOC(=O)C1CCCN(C(=O)CN2CCN(Cc3ccc(Cl)cc3)C2=O)C1 (configuration not stated)	i	0.96	101.8	13.5	76.8	-4.0	-4.2
Cc1cccc(NC(=O)CSc2nnc(Cn3cnc4ccccc43)o2)c1	i	0.93	103.5	-104.8	91.3	0.4	-1.9
COCCn1cc(C(=O)NCc2cccs2)c2c3ccccc3n(C)c2c1=O	i	1.13	101.0	x	x	4.4	-3.6
COc1ccccc1NC(=O)CN1C(=O)NC2(CCCCCCC2)C1=O	i	0.88	100.9	-31.6	148.4	-3.1	x
Cc1nn(-c2ccccc2)nc1CNC(=O)C1CC1	i	0.74	103.3	x	x	x	x
CCn1c(CNC(=O)c2cccs2)nnc1SCC(=O)Nc1ccc(Cl)cc1	i	1.08	141.6	i	79.8	-0.5	-2.0
CCCN1C(=O)c2cc(C(=O)Nc3ccccc3C)ccc2C1Nc1ccccc1C (configuration not stated)	i	0.72	99.4	x	x	x	x
COc1cccc(N(CC(=O)Nc2cccc(F)c2)S(C)(=O)=O)c1	i	0.87	112.7	-25.0	109.9	3.2	-1.1
O=C(Nc1ccncc1)C1(c2ccccc2)CCCC1	i	0.97	102.3	0.0	55.3	40.6	-1.2
CCOC(=O)N1CCN(C(=O)C2CC(=O)N(c3ccc(OC)cc3)C2c2ccc(OC)cc2)CC1 (configuration not stated)	i	0.86	109.4	52.6	76.6	-1.0	2.1
O=C(COC(=O)Cn1cnc2ccccc21)NCCCc1ccccc1	i	1	115.1	x	x	0.8	x
CCOC(=O)c1cc(NC(=O)c2ccc(Cl)cc2)c(=O)n2c1oc1ccc(Cl)cc12	i	0.79	102.9	x	x	-3.9	-2.9
Cc1cc(Nc2ccc(Br)cc2F)n2ncnc2n1	x	x	108.0	15.0	88.6	-3.2	-1.1
COc1cc(C)nc(N2CCCC(C(=O)Nc3cccc(Cl)c3C)C2)n1 (configuration not stated)	i	0.997	95.5	x	x	-2.6	2.3
COc1ccc2oc(-c3ccccc3)c(C(=O)N3CCOCC3)c2c1	i	0.89	95.4	x	x	-4.7	0.1
O=C(NCCO)C1(c2ccc(Cl)cc2)CCCC1	i	0.65	104.6	-8.1	140.4	3.8	-0.5
CN(C)CCCN(C(=O)c1ccc2c(c1)CCCC2)c1nc2ccc(F)cc2s1	i	0.72	98.5	-22.6	131.6	-1.9	1.2
CCOc1ccc(NC(=O)COC(=O)c2ccc3c(c2)C(=O)N(CCc2ccccc2)C3=O)cc1	i	1.05	102.0	3.3	99.2	-1.2	2.4
O=c1c2ccccc2nc(-c2ccco2)n1/N=C/c1ccco1	i	0.94	92.6	25.0	142.0	7.1	1.3
COc1cc2c(cc1/C=C1/NC(=O)N(c3ccccc3)C1=O)OCO2	i	0.7	97.9	6.9	174.6	-2.9	1.2

Structures listed so far that contain a CF3 group (two):
SMILES	HSV augment	HSV augment primary fold	RGS16-Gao HTS	INS promoter inh	INS promoter inh cell count	PKD1 inh	GALR2 ag
CC(=O)CCC(=O)OCC(=O)c1ccc(C(F)(F)F)cc1	i	1	94.6	x	x	x	x
Nc1c(C(=O)C2CC2)sc2nc(-c3ccccc3)cc(C(F)(F)F)c12	u	x	88.6	x	x	-8.4	-3.5
